Bioassay records: PubChem, several laboratories
eIF4H inh: inhibitors of RNA binding by human eIF4H | Q15056 | eIF4H fluorescence polarization binding assay | inhibition, % at 35 µM | hit rate 0.94% among 290,000 | AID 2012;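 active means 50% or more with normal probe brightness, or confirmed in later tests; inconclusive means above 50% with abnormal brightness, or retests that disagree; inactive means below 50% or failed in later tests; about a fifth of its hits are not listed in these tables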;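 further: calls also rest on retests at 20 µM and on dose response follow-up; 0% = protein and probe with vehicle and 100% = probe without protein; strong numbers were not always called active; many hits fall short of the cut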
Env fusion inh: HIV envelope-mediated fusion inhibition; HeLa-JRFL Env/CEM21 cell fusion, luciferase; inhibition, % at 12.3 µM; hit rate 1.1% among 360,000;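 active means mean replicate inhibition score of at least 50 and every replicate individually at or above 50; inconclusive means only one of the two criteria met; inactive means mean below 50 and not all replicates reaching 50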;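 further: 0% = plate neutral controls and 100% = maraviroc near 300 nM; one replicate is shown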
Rce1 inhib: blocks yeast Ras-converting enzyme; hit rate 0.27% among 290,000; calls only; Q03530; yeast membranes, quenched prenylated peptide cleavage fluorescence;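 active means fall in fluorescence gain of 50% or more versus controls, with final raw signal at or below 3038400; inconclusive means same 50% fall but final raw signal above 3038400; inactive means fall in fluorescence gain under 50%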;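 further: plate controls were neutral control wells for no effect and wells lacking membranes for full effect; tested at 10 µM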
UUG fidelity: modulators of start codon recognition fidelity in yeast; S. cerevisiae UUG-firefly luciferase reporter, luminescence/redox ratio; activity score, % at 18.7 µM; hit rate 0.13% among 350,000; AID 602363;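 active means replicate mean at a twofold rise or more, about +100% in these data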;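 further: firefly luciferase made from a UUG start codon reports start codon fidelity; reporter light over untreated wells divided by growth signal over untreated wells; some hits fall short of that in this replicate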
PABP FP inh: blocks human PABP binding to poly(A) RNA | hit rate 1% among 290,000 | fluorescence polarization | inhibition, % at 35 µM | P11940 | AID 2014;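 active means 50% or more with normal probe brightness, or confirmed in later tests; inconclusive means above 50% with abnormal brightness, or retests that disagree; inactive means below 50% or failed in later tests; about a fifth of its hits are not listed in these tables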;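 further: calls also rest on retests at 20 µM and on dose response follow-up; controls were probe without protein and protein plus probe with vehicle; some compounds called inactive have numbers as strong as hits; many hits fall short of the cut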
Target sequence (P11940 whole entry, looked up): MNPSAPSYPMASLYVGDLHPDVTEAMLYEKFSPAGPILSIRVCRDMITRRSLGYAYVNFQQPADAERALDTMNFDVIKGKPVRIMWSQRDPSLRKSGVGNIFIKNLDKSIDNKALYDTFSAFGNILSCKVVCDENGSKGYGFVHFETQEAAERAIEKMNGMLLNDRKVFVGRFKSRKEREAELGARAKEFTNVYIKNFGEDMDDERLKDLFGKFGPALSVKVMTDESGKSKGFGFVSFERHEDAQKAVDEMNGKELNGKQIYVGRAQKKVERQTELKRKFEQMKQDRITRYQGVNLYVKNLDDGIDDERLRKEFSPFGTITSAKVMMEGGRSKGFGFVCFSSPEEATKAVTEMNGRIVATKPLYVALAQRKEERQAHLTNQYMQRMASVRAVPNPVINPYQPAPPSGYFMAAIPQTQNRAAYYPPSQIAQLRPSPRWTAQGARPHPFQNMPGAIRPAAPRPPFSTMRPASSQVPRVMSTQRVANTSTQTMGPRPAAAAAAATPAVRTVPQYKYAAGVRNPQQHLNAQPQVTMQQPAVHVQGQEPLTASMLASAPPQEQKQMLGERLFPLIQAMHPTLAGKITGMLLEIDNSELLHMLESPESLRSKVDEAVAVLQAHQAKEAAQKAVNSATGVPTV
CSC inhib: cancer stem cell inhibition | cancer stem cell-like cells viability, luminescence | hit rate 1.1% among 300,000 | inhibition, % at 7.5 µM;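 active means mean at 75% or more and at least half the replicates too; inconclusive means mean and replicates disagree; tested in HMLE shEcad cells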;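 further: 0% = median of negative and 100% = median of positive control wells; the first replicate is given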
MT1-MMP act inh: inhibitors of human MT1-MMP activation. HT1080 RFP-PRO-GFP cells, GFP/RFP ratio fluorescence, overnight; percent of plate control window, DMSO zero. hit rate 0.061% among 360,000. P50281. GFP/RFP ratio change, % at 20 µM;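 active means GFP/RFP ratio change of at least 30% with cell ATP level not reduced by more than half and red fluorescence within 50% of control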; further: strong numbers were not always called active
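Assay system: HT1080 cells carrying an RFP-PRO-GFP reporter | Dosing: Single dose of 20 µM compound, 1% DMSO final | Incubation: Cells overnight before dosing, compound overnight, 37 °C, 5% CO2 | Evaluation: GFP/RFP fluorescence ratio | Control set: DMSO and RFP-L50D-GFP cell wells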
MT1-MMP act inh RFP: further read-out of MT1-MMP act inh, marked with its call; RFP signal change, %; measured here: RFP expression control read;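 0 = vehicle wells; hits needed this value within 50% of zero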
Active calls of the source: *; i = inactive; u = inconclusive; x = not tested or not shown.

Each structure is followed by: eIF4H inh, Env fusion inh, Rce1 inhib, UUG fidelity, PABP FP inh, CSC inhib, MT1-MMP act inh, MT1-MMP act inh RFP
#1 O=C(NNC(=O)c1ccccc1O)c1ccc(Br)cc1
  -1.9, -13.6, i, -13.4, 12.8, 3.7, 4.3, 2.6
#2 O=C(OCC(=O)N1CCN(C(=O)COC(=O)c2ccc(O)cc2O)CC1)c1ccc(O)cc1O
  x, -12.8, i, -2.9, x, x, -6.2, 0.8
#3 O=C1N[C@H](Cc2ccccc2)COC(=O)[C@H](Cc2ccc(F)cc2)CC/C=C/C[C@@H]1CC(=O)N(CCO)Cc1ccccc1
  x, -24.8, x, -9.9, x, 30.3, -1.2, -11.7
#4 CCC(C)NC(=O)Nc1ccc(Br)cc1 (stereo unspecified)
  -4.4, -11.9, i, x, 10.2, 10.4, -2.6, -1.7
#5 CC(=O)N(C(C)=O)c1c(C#N)c(C)n(-c2ccccc2)c1C(=O)c1ccccc1
  -3.1, x, i, 11.1, -11.3, 44.4, 4.5, 4.2
#6 O=C(NC1CCCC1)C1CCCN1C(=O)Nc1ccc(Cl)cc1 (stereo unspecified)
  3.2, -74.9, i, -22.8, -6.2, 0.0, -2.2, 3.5
#7 O=C(O)CCc1ncc(C(F)(F)F)cc1Cl
  0.2, -8.8, i, -27.5, 10.1, -10.4, -6.3, 1.0
#8 Cc1c(C(=O)NCCCN2CCOCC2)sc2nc(-c3ccccc3)cn12
  -6.9, -19.1, i, x, -4.8, 5.1, x, x
#9 O=C(NCCCn1ccnc1)c1ccc2ccccc2c1
  -6.4, -0.4, i, -15.9, 4.8, -10.4, 0.7, 2.5
#10 CN1CC=C2C(C#N)=C(N)C(C#N)(C#N)[C@H](c3cccs3)[C@H]2C1
  u, x, i, -6.4, 2.7, -3.5, -104.7, 10.8
#11 S=c1[nH]nc(-c2cccnc2)n1/N=C/c1ccc(Br)s1
  1.0, 19.5, i, -4.7, -7.6, -7.2, 1.5, -2.2
#12 Cc1nnc(SCC(=O)c2cc(C)n(-c3ccc4c(c3)OCO4)c2C)s1
  23.9, 22.2, i, -16.6, 23.2, -8.1, 1.0, -16.3
#13 O=C(CCn1cnnn1)Nc1ccccc1
  -1.7, -15.5, i, -17.2, 4.8, -8.8, -8.2, -5.4
#14 Cn1c(=O)c2c(nc(Br)n2CCCc2ccccc2)n(C)c1=O
  0.6, x, i, -10.0, -1.3, 2.0, -0.1, -4.2
#15 Nc1ncnc2c1cnn2C1CC(O)C(CO)O1 (stereo unspecified)
  x, 0.3, x, -12.4, x, x, 0.9, 1.9

Reformatted screen by screen: entries from further up.
(15) Nc1ncnc2c1cnn2C1CC(O)C(CO)O1 (stereo unspecified)
(10) CN1CC=C2C(C#N)=C(N)C(C#N)(C#N)[C@H](c3cccs3)[C@H]2C1

Assay by compound	15	10
eIF4H inh	x	u
Env fusion inh	0.3	x
Rce1 inhib	x	i
UUG fidelity	-12.4	-6.4
PABP FP inh	x	2.7
CSC inhib	x	-3.5
MT1-MMP act inh	0.9	-104.7
MT1-MMP act inh RFP	1.9	10.8

More structures follow.
Each structure is followed by: eIF4H inh, Env fusion inh, Rce1 inhib, UUG fidelity, PABP FP inh, CSC inhib, MT1-MMP act inh, MT1-MMP act inh RFP
#16 CCOC(=O)C1CCCN(C(=O)c2ccccc2NS(=O)(=O)c2ccc(F)cc2)C1 (stereo unspecified)
  x, -7.3, x, -4.7, x, 4.8, 0.1, 2.2
#17 CN(C(=S)NC1CCCCC1)C1(c2ccccc2Cl)CCCCC1=O (stereo unspecified)
  -5.6, 92.7*, i, x, -3.9, -2.7, -7.2, -8.2
#18 O=C(COCc1nc2ccccc2c(=O)[nH]1)NC1CCCC1
  -2.6, -13.8, i, 1.9, -2.9, 12.6, -1.2, 4.7
#19 CC1CC1C(=O)OCC(=O)Nc1ccc(Cl)cn1 (stereo unspecified)
  x, x, x, 2.6, x, -1.5, -2.6, -0.1
#20 O=C(COC(=O)c1cc2ccccc2cc1O)NC1CCCCC1
  x, -7.3, x, -15.1, x, -11.4, 2.2, -4.9
#21 COc1ccc(CNC(=O)CN(Cc2ccc(C)cc2)C(=O)c2csnn2)cc1
  -0.8, -9.7, i, -2.3, 2.0, 1.5, 0.4, 2.9
#22 CC1(C)NC(=O)N(CCCCOc2ccc(Cl)cc2C=O)C1=O
  -8.7, 14.4, i, -6.5, -11.2, 17.6, 1.9, -0.2
#23 Cc1ccc(/C=N/NC(=O)CSc2nc3ccccc3o2)cc1
  -5.0, 1.5, i, x, 1.4, -20.1, 5.0, 3.2
#24 Fc1ccc(N=c2ssnc2Cl)c(F)c1
  -6.5, -1.8, i, x, -13.1, -4.3, -3.4, -7.8
#25 CCN(CC(=O)Nc1ccc(NC(C)=O)cc1)C(=O)c1ccc(S(=O)(=O)N2CCCC2)cc1
  x, -7.3, x, 11.7, x, x, -2.4, -4.5
#26 CCN(C(=O)c1cccc(Br)c1)C1CCS(=O)(=O)C1 (stereo unspecified)
  x, -0.2, i, -0.6, x, -0.2, 0.0, -0.8
#27 C#CCNC(=O)C1=C[C@H](c2ccc3c(c2)OCO3)C[C@H](OCc2ccc(CO)cc2)O1
  1.1, 18.6, i, -9.2, -0.8, -7.1, -4.7, -1.6
#28 CC(C)c1ccccc1NC(=S)NCC1(N(C)C)CCCCC1
  -15.1, 7.7, i, -11.0, -6.4, -6.5, -1.5, -0.6
#29 O=C(NCCC1CCCCN1S(=O)(=O)c1ccc(F)cc1)C(=O)Nc1ccccc1F (stereo unspecified)
  x, 3.5, i, -8.4, x, -1.2, -1.7, -1.9
#30 CCOC(=O)CC1C(=O)NCCN1C(=O)c1c(F)cccc1F (stereo unspecified)
  4.6, x, i, 21.8, -0.7, 0.6, 3.1, 4.7
#31 CCOC(=O)CC1CCCCN1Cc1cn[nH]c1-c1ccc(F)cc1F (stereo unspecified)
  -9.8, -44.6, i, x, -10.7, -17.5, -7.1, 1.8
#32 COc1cccc(-n2c(-c3ccccc3)c[nH]c2=S)c1
  -3.6, -9.6, i, -11.6, 6.8, -11.7, 0.5, -1.1
#33 COc1ccc(CC(N)c2csc(Nc3cc(NCCCO)ncn3)n2)cc1 (stereo unspecified)
  x, 2.9, x, -0.1, x, x, -7.6, -4.7
#34 CO/N=C/C(C#N)=C/c1cc(C(=O)c2ccccc2)cn1C
  -2.2, -21.2, i, x, 24.7, -13.4, -0.7, -0.8
#35 COc1ccc(C(=O)Nc2ccc(Nc3ccccc3)cc2)cc1[N+](=O)[O-]
  -6.5, -24.6, i, -7.3, 10.0, u, 9.2, -9.5
#36 CS(=O)(=O)N1CCC(C(=O)Nc2ccc(OCc3ccccc3)cc2)CC1
  1.2, x, i, -7.5, -1.0, -8.7, 7.4, 5.5
#37 Cc1ccsc1/C=N/NC(=O)CNC(=O)c1ccc(S(=O)(=O)N2CCOCC2)cc1
  -1.5, 9.7, x, -6.9, -5.5, -12.1, 2.9, 2.4
#38 Cc1ccccc1CNC(=O)CCNS(=O)(=O)c1ccc(OC(F)(F)F)cc1
  x, x, x, -1.3, x, 8.2, 1.5, -0.9
#39 O=C(O)c1cc(=O)c2c(OCC(O)COc3cccc4oc(C(=O)O)cc(=O)c34)cccc2o1
  -3.2, 9.7, x, -6.5, -10.4, x, -0.2, 3.0
#40 CCCC1(C)NC(=O)c2ccccc2O1 (stereo unspecified)
  -0.5, -0.6, i, x, 1.8, -1.6, 1.1, 6.9
#41 CCN(CC)CCCNc1nc(-c2ccccc2)nc2ccccc12
  5.0, -16.4, i, -7.9, -3.3, -7.8, -5.6, -3.6
#42 CCOC(=O)CSc1nc2sc3c(c2c(=O)n1-c1ccc(OC)cc1)CCN(C)C3
  12.7, 2.6, i, -13.1, -3.2, -4.9, -2.5, 0.5
#43 Cc1ccc(CS(=O)(=O)CCC(=O)NCCCOC(C)C)cc1
  -1.3, x, i, -19.4, -1.1, -5.2, -3.4, 0.2
#44 CC(C)c1ccc2oc(=O)cc(CN3CCCCC3)c2c1
  5.7, 9.4, i, 13.5, 1.2, -1.4, -1.8, -1.0
#45 C/C=C(/C)C(=O)Nc1cccc(C2=NOC3(C2)C[C@@H](C(N)=O)N(C(=O)/C=C/CC)C3)c1 (stereo partly specified)
  -1.8, -73.4, i, 3.0, 6.1, -11.4, 0.6, 5.2
#46 O=C(/C=C/c1cccc([N+](=O)[O-])c1)NC(=S)Nc1cccc(NC(=O)c2ccccc2Cl)c1
  -0.3, 8.4, i, -15.2, 15.7, 18.9, -8.5, -11.5
#47 Cc1cc(Cl)ccc1OCC(=O)OCC(=O)NC1CCS(=O)(=O)C1 (stereo unspecified)
  x, -12.1, x, -21.7, x, x, 0.1, 3.7
#48 CCOC(=O)C1=C(C)OC(N)=C(C#N)C1c1cc(Cl)c(OCC(N)=O)c(OC)c1 (stereo unspecified)
  7.2, -27.3, i, 10.1, 3.3, 7.3, -10.2, -0.1
#49 COC(=O)C1C(O)=CC(=O)CC1C (stereo unspecified)
  4.0, 42.3, i, -25.8, 0.3, 11.8, 1.1, 3.9
#50 Cc1ccc(NC(=O)Cn2nc(C(=O)O)c3ccccc3c2=O)c([N+](=O)[O-])c1
  -5.6, 7.1, i, -12.1, 0.4, -4.6, 7.0, 9.4
#51 Cc1cccc(CCNC(=O)CCS(=O)(=O)c2ccc(Br)cc2)c1
  1.2, -49.5, x, x, -6.1, 3.0, 0.4, 0.6
#52 CCOCCCNC(=O)c1oc2ccc3c(c2c1C)C(O)CC(C)(C)O3 (stereo unspecified)
  6.2, 1.7, i, 3.3, 3.7, -3.6, 4.7, 3.4
#53 CN(Cc1ccccc1)C(=O)CCC1CCN(C(=O)CCC(F)(F)F)CC1
  -1.3, -9.9, i, 7.6, 1.2, 3.2, 0.3, 0.9
#54 COc1ccc(NS(=O)(=O)c2cc(C)ccc2OC)cc1OC
  13.6, x, i, -12.6, 6.3, -7.8, -2.1, -10.5
#55 O=C(O)C[C@H]1c2cc(C(F)(F)F)ccc2S(=O)(=O)N1C1CCCCC1
  x, 7.2, i, -23.7, x, -6.3, 1.3, 2.7
#56 CN(C)CCCOc1nc2c(c(=O)n(C)c(=O)n2C)n1C
  -12.3, x, i, 1.3, 0.8, -1.9, -1.9, -2.2
#57 COCCN(C(=O)COC(=O)c1cc2ccccc2cc1O)c1c(N)n(Cc2ccccc2)c(=O)[nH]c1=O
  x, x, i, 4.1, x, -2.6, 0.0, -0.5
#58 Cc1ccc2cc(CN(CCN3CCOCC3)C(=O)NCc3ccccc3)c(=O)[nH]c2c1C
  -5.4, x, i, 2.2, 1.8, x, 2.4, 2.7
#59 CCOC(=O)C1Oc2ccccc2C(c2cccc3ccccc23)=C1C(=O)OC (stereo unspecified)
  x, -1.3, x, -19.6, x, x, -2.5, -4.0
#60 COc1cc(OC)cc(-c2cc3nc(C)c(CCC(=O)O)c(=O)n3[nH]2)c1
  0.4, -17.2, i, -17.3, 13.0, 8.4, 4.6, 1.1
#61 Cc1ccc(S(=O)(=O)NCc2csc(-c3cccs3)n2)cc1
  -5.6, -10.1, i, x, -7.0, -7.2, 0.8, 1.7
#62 O=C(Nc1ccccc1N1CCOCC1)c1ccc(Cl)c(S(=O)(=O)NCc2ccco2)c1
  -3.9, -21.3, i, x, 8.5, 0.5, -2.6, -4.1
